CDC25B CDK2 inh – human CDC25B-CDK2/CyclinA binding inhibition; 0.72% of 94,000 active; HTRF CDC25B-CDK2/CyclinA binding, anti-His/anti-Flag; hits give high values; P30305+P24941; AID 1259370; z-score (test concentration not listed);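 also: score is relative to mean and SD of negative controls; strong numbers were not always called active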
TAR Tat displ – HIV-1 TAR-Tat binding disruption | z-score (concentration not given with the values) | HIV-1 TAR RNA, Tat peptide displacement FRET; hits give high values | 0.6% of 100,000 active;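 also: score is relative to mean and SD of negative controls; some compounds called inactive have numbers as strong as hits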
* = called active by the depositor.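 The calls were made as follows: active = z-score from 3 up in half or more of its runs; inactive = the rest.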

`CCOC(=O)N1CCN(c2cnc3cc(S(=O)(=O)N4CCCCC4)ccc3n2)CC1` gave CDC25B CDK2 inh -0.16 and TAR Tat displ 0.26.
CCc1cc(Nc2ccc(Cl)cc2)n2ncnc2n1 was read as CDC25B CDK2 inh -0.95 and TAR Tat displ 0.46.
Screening Fc1ccc(Oc2ccnc3cc(Cl)ccc23)cc1 returned CDC25B CDK2 inh -1.6.
For O=C1CC(c2nc3ccccc3[nH]2)CN1Cc1ccco1 (stereo not drawn) the results were CDC25B CDK2 inh -1.1 and TAR Tat displ 1.9.
Screening Cc1cccc(Nc2nc3ccc(Cl)cc3n3nnnc23)c1 returned CDC25B CDK2 inh -2.9 and TAR Tat displ -2.8.
`CCOC(=O)c1c(NC(C)=O)sc2c(OC(C)=O)c(Br)ccc12` gave CDC25B CDK2 inh -2.1 and TAR Tat displ -0.11.
`O=C(CSc1nc2ccccc2c(=O)[nH]1)Nc1cccc(F)c1` gave TAR Tat displ 1.7.
For Cc1ccc(S(=O)(=O)Nc2ccc(-c3cn4ccsc4n3)cc2)s1 the results were TAR Tat displ 0.65.
Cn1c(C(=O)N2CCC(C(=O)NC3CCCc4ccccc43)CC2)cc2sccc21 (stereo not drawn) was read as CDC25B CDK2 inh 0.72 and TAR Tat displ 1.9.
CC(C)(CC(=O)O)CC(=O)Nc1cc(Cl)ccc1Cl was read as CDC25B CDK2 inh -1.2.
`Cc1ccc(Nc2ncnc3c2cnn3-c2ccccc2)c(C)c1` gave CDC25B CDK2 inh -1.2.
`CSc1sc(C(=O)/C(C#N)=C/Nc2ccccn2)c2c1C=CCC2` gave CDC25B CDK2 inh -1.4.
Screening O=C1Nc2ccccc2/C1=C/c1ccc(N2CCOCC2)nc1 returned CDC25B CDK2 inh -0.6.
`NS(=O)(=O)c1ccc(Sc2nc3ccccc3o2)c([N+](=O)[O-])c1` gave CDC25B CDK2 inh 1.8.
CCCc1nnc(NC(=O)Nc2ccc(OC)cc2)s1 was read as CDC25B CDK2 inh -2.8.
COC(=O)Cn1cnc([N+](=O)[O-])n1 was read as TAR Tat displ 0.13.
CCOCCCNC(=O)c1cc2n(n1)CC(C)(C(=O)NC1CCCCC1)N(C)C2=O (stereo not drawn) was read as TAR Tat displ 1.8.
Cc1nc(NCc2ccc3c(c2)OCO3)nc2c1C(=O)c1ccccc1-2 was read as CDC25B CDK2 inh -0.55 and TAR Tat displ -2.1.
For COc1cc(C2NC(=O)c3[nH]nc(-c4ccc(C)cc4)c32)ccc1O (stereo not drawn) the results were TAR Tat displ 3.2.
O=C(Cn1nc2c(cc1=O)CCCC2)Nc1ccc(F)cc1 was read as TAR Tat displ 1.6.
`NNC(=O)c1csc(COc2ccc(C3SCCS3)cc2)n1` gave CDC25B CDK2 inh -0.17.
`CCOC(=O)C1CCN(C(=O)c2sc(-c3ccccc3)nc2C)CC1` gave CDC25B CDK2 inh -1.6.
COC(=O)c1sc2ccccc2c1S(=O)(=O)NCc1ccc2c(c1)OCO2 was read as TAR Tat displ -0.38.
`COc1ccc(CCNS(=O)(=O)c2ccc(-c3ccc(=O)[nH]n3)s2)cc1OC` gave TAR Tat displ -0.47.
Screening N/C(Cc1nc2ccccc2s1)=N\O returned CDC25B CDK2 inh -1.2.
For CCOCCCNC(=O)c1cnc2sc(N3CCCC(C)C3)nn2c1=O (stereo not drawn) the results were TAR Tat displ -0.13.
Screening COc1cccc(C2Nc3ccc4ccccc4c3C3=C2C(=O)CC(C)(C)C3)c1OCC(=O)O (stereo not drawn) returned CDC25B CDK2 inh -0.96 and TAR Tat displ 0.18.
For COc1ccc(OC2C(=O)N(CCc3ccc(Cl)cc3)C2c2ccc3c(c2)OCO3)cc1 (stereo not drawn) the results were CDC25B CDK2 inh 0.32 and TAR Tat displ 1.4.
Cc1ccc(S(=O)(=O)N2c3ccccc3C(C)CC2(C)C)cc1 (stereo not drawn) was read as CDC25B CDK2 inh -0.82 and TAR Tat displ 1.2.
For Cc1noc2ncnc(N3CCN(c4ccccc4)CC3)c12 the results were TAR Tat displ -0.56.
Screening O=C(CCSc1ccc(Cl)cc1)Nc1nc(-c2ccncc2)cs1 returned TAR Tat displ 0.15.
Screening CCCCNc1ncnc2scc(-c3ccc(F)cc3)c12 returned TAR Tat displ -0.77.
For C[C@@H](NCCc1ccc(O)cc1)[C@@H](O)c1ccc(O)cc1 the results were CDC25B CDK2 inh -0.74.
Cc1nn2c(CN(c3ccccc3)S(=O)(=O)c3ccccc3)nnc2c2ccccc12 was read as CDC25B CDK2 inh -2.9 and TAR Tat displ -0.35.
For CC(C)(CC(=O)O)CC(=O)NNc1c(Cl)cncc1Cl the results were CDC25B CDK2 inh -0.8.
For CC(C)CCNC(=O)C(C)Sc1nnc(-c2ccncc2)o1 (stereo not drawn) the results were CDC25B CDK2 inh -1.2 and TAR Tat displ -1.
`CC1CCN(CCNC(=O)C2CCN(c3ncnc4c3nc3n4CCCCC3)CC2)CC1` gave TAR Tat displ 1.2.
Screening N/C(CN1CCSCC1)=N\OC(=O)c1cccs1 returned CDC25B CDK2 inh -1.9.
`Cc1c(NC(=O)c2noc(C(C)C)c2[N+](=O)[O-])c(=O)n(-c2ccccc2)n1C` gave CDC25B CDK2 inh -1.2 and TAR Tat displ -0.41.
Screening Cc1ccc(-c2nnc(SCc3cc(=O)c4ccccc4[nH]3)n2C)cc1 returned TAR Tat displ 0.82.

In the list so far, five contain an aryl methoxy group.
CCCc1nnc(NC(=O)Nc2ccc(OC)cc2)s1 was read as CDC25B CDK2 inh -2.8.
For COc1cc(C2NC(=O)c3[nH]nc(-c4ccc(C)cc4)c32)ccc1O (stereo not drawn) the results were TAR Tat displ 3.2.
`COc1ccc(CCNS(=O)(=O)c2ccc(-c3ccc(=O)[nH]n3)s2)cc1OC` gave TAR Tat displ -0.47.
Screening COc1cccc(C2Nc3ccc4ccccc4c3C3=C2C(=O)CC(C)(C)C3)c1OCC(=O)O (stereo not drawn) returned CDC25B CDK2 inh -0.96 and TAR Tat displ 0.18.
For COc1ccc(OC2C(=O)N(CCc3ccc(Cl)cc3)C2c2ccc3c(c2)OCO3)cc1 (stereo not drawn) the results were CDC25B CDK2 inh 0.32 and TAR Tat displ 1.4.

Carrying on.
For CC(=O)Nc1ccc(S(=O)(=O)[C@H]2CS(=O)(=O)C[C@@H]2NCCC2=CCCCC2)cc1 the results were CDC25B CDK2 inh -1.2 and TAR Tat displ -1.
Cc1nc(NC(=O)c2nn(-c3ccc(F)cc3)ccc2=O)sc1C(=O)OCC(C)C was read as CDC25B CDK2 inh -1 and TAR Tat displ -0.14.
Screening Cc1occc1-c1nnc(SCC(=O)c2ccc3c(c2)OCCO3)o1 returned CDC25B CDK2 inh -1.5 and TAR Tat displ -1.7.
`COc1ccc(Nc2ncc3c(n2)CCN(Cc2cc(Br)cs2)C3)cc1` gave TAR Tat displ 0.72.
`C=CCn1c(=O)c(C(=O)Nc2cccnc2)c(O)c2ccccc21` gave CDC25B CDK2 inh 5.1 and TAR Tat displ 1.3.
Screening CC(=O)OC[C@H](OC(C)=O)[C@H](OC(C)=O)[C@@H](CNC(=O)c1ccc(C)c(C)c1)OC(C)=O returned CDC25B CDK2 inh -2.
Screening O=C(NCCCN1CCN(c2cccc(Cl)c2)CC1)NC1COc2ccccc2C1 (stereo not drawn) returned TAR Tat displ -2.3.
O=C(NCc1cccs1)c1ccc(-n2ccc3ccccc32)s1 was read as TAR Tat displ 0.65.
Screening CCc1ccc(-c2cc(C)no2)cc1S(=O)(=O)N(C)CC1COc2ccccc2O1 (stereo not drawn) returned TAR Tat displ 1.2.
For Brc1ccc(C2=CSc3ccccc3N2)cc1 the results were CDC25B CDK2 inh -0.71.
Screening CC1=C(C(=O)OCCc2ccccc2)C(c2cccnc2)C2=C(CC(c3ccccc3)CC2=O)N1 (stereo not drawn) returned CDC25B CDK2 inh 0.35 and TAR Tat displ -0.77.
COc1ccc(S(=O)(=O)[C@H]2CS(=O)(=O)C[C@@H]2N2CCC(C(N)=O)CC2)cc1 was read as CDC25B CDK2 inh -1.4 and TAR Tat displ -0.68.
For Cc1nc(N2CCOCC2)c2c(C(=O)N3CCCc4ccccc43)c(C)oc2n1 the results were TAR Tat displ 0.38.
For COc1ccc2c(c1)c(=O)oc1c(C)c3oc(C)c(C)c3cc12 the results were CDC25B CDK2 inh 0.89 and TAR Tat displ 0.34.
For COC(=O)C1=NNC(C(=O)OC)=C2COCOCC12 (stereo not drawn) the results were CDC25B CDK2 inh -0.16 and TAR Tat displ -0.28.
`Cc1cc(C)n(CCc2nc3c4ccccc4nc(NCc4ccccc4Cl)n3n2)n1` gave CDC25B CDK2 inh -0.96 and TAR Tat displ -0.45.
COc1ccc(Br)cc1/C=N/NC(=O)CNc1ccccc1 was read as CDC25B CDK2 inh -1.6.
`CCCCN1C(=O)C2C(C(=O)Nc3ccc(Cl)cc3)C3C=CC2(O3)C1C(=O)NC1CCCCC1` (stereo not drawn) gave CDC25B CDK2 inh -0.28 and TAR Tat displ -1.1.
For O=C(NC1CC1)c1sc2ncccc2c1-n1cccc1 the results were TAR Tat displ 0.17.
For Cn1cc(S(=O)(=O)N2CCc3ccccc32)cc1C(=O)NC1CCCc2ccccc21 (stereo not drawn) the results were CDC25B CDK2 inh -1.6 and TAR Tat displ 1.7.
For Cn1c(=O)[nH]c2cc(-c3noc(-c4ccc(Br)cc4)n3)ccc21 the results were TAR Tat displ 0.82.
Screening O=C1Nc2ccccc2C12NN=C(c1ccccc1O)S2 (stereo not drawn) returned CDC25B CDK2 inh 0.44.
For O=C(/C=C/c1ccc2c(c1)OCO2)Nc1ccccc1C(=O)O the results were CDC25B CDK2 inh 0.32.
`CC(=O)N(C)c1cccc(-c2ccc3nnc(C)n3n2)c1` gave CDC25B CDK2 inh -2.2.
`O=C1CCC([N+](=O)[O-])C(c2ccc(OCc3ccccc3)cc2)N1` (stereo not drawn) gave CDC25B CDK2 inh -0.04 and TAR Tat displ 1.5.
For Cn1c(=O)oc2cc(S(=O)(=O)Nc3ccc(Cl)cc3F)ccc21 the results were CDC25B CDK2 inh -0.93.
For Cc1nc2sccn2c(=O)c1S(=O)(=O)Nc1ccc(F)cc1F the results were TAR Tat displ 0.37.
`CCn1nc(C)c(CCNC(=O)CN(C)c2nnc(N3CCCC3=O)s2)c1C` gave TAR Tat displ 0.48.
CCCCc1nn2c(=O)cc(COC(=O)CNC(=O)c3ccco3)nc2s1 was read as TAR Tat displ 1.6.
O=C(NCCCN1CCOCC1)c1ccc(NC2=NC3CS(=O)(=O)CC3S2)cc1 (stereo not drawn) was read as TAR Tat displ 1.6.

Arranged by molar mass (smallest number first): part of the list above.
For O=C(/C=C/c1ccc2c(c1)OCO2)Nc1ccccc1C(=O)O the results were CDC25B CDK2 inh 0.32.
`O=C1CCC([N+](=O)[O-])C(c2ccc(OCc3ccccc3)cc2)N1` (stereo not drawn) gave CDC25B CDK2 inh -0.04 and TAR Tat displ 1.5.
For Cc1nc2sccn2c(=O)c1S(=O)(=O)Nc1ccc(F)cc1F the results were TAR Tat displ 0.37.
O=C(NCCCN1CCOCC1)c1ccc(NC2=NC3CS(=O)(=O)CC3S2)cc1 (stereo not drawn) was read as TAR Tat displ 1.6.

Further structures
`Cc1noc(-c2ccccc2)c1NC(=O)Nc1ccc(-c2nc3ccccc3s2)cc1` gave CDC25B CDK2 inh -2.6.
Screening O=C1CC(c2nc3ccccc3[nH]2)CN1c1ccccc1Br (stereo not drawn) returned CDC25B CDK2 inh -1.3 and TAR Tat displ 1.1.
Cc1cc(NS(=O)(=O)c2ccc(N3CCCCS3(=O)=O)cc2)ccc1Br was read as TAR Tat displ 2.3.
`C=CCN(Cc1nc(-c2ccc(OC)c(OC)c2)no1)S(=O)(=O)c1c(C)cc(C)cc1C` gave CDC25B CDK2 inh -1 and TAR Tat displ 0.25.
O=C(O)CCCn1c(=S)[nH]c2ccccc2c1=O was read as CDC25B CDK2 inh -0.85.
Screening Clc1ccc(CSC2=NNC(c3ccccn3)S2)cc1 (stereo not drawn) returned CDC25B CDK2 inh -2.1.
Cn1c(C(=O)N2CCN(C(=O)c3ccco3)CC2)cc2c(=O)n(C)c3ccccc3c21 was read as CDC25B CDK2 inh -1.7 and TAR Tat displ 1.1.
`CCN1CCN(c2ncc3c(n2)CCN(Cc2ccc(F)cc2)C3)CC1` gave TAR Tat displ 0.54.
`CC(C)CCNc1nc(Nc2ccccc2)c2cnn(C)c2n1` gave TAR Tat displ 1.2.
For CC1(C)C(=O)C2(CCCCC2)C(=O)OC1c1ccc(Br)o1 (stereo not drawn) the results were CDC25B CDK2 inh -1.9.
Screening O=C(Nc1ccc(Cl)cn1)c1noc2c1CCc1sccc1-2 returned TAR Tat displ -0.87.
COc1ccccc1/C=C/c1nc2ccccc2[nH]1 was read as CDC25B CDK2 inh -3.9.
`Cc1cc(C)c(S(=O)(=O)NCCc2csc(-c3ccc(F)cc3)n2)c(C)c1` gave TAR Tat displ -0.77.
For O=C(c1ccco1)N1CCN(C(=O)c2cc(-c3ccccc3)c(N3CCOCC3)s2)CC1 the results were TAR Tat displ 1.6.
For COc1ccc(NC(=O)NC(C)c2c(-n3cccc3)sc(C)c2C)cc1OC (stereo not drawn) the results were CDC25B CDK2 inh 2.4 and TAR Tat displ -0.73.
`CC1=C(c2ccccc2)S(=O)(=O)N=C1N1CCN(c2ccc(F)cc2)CC1` gave CDC25B CDK2 inh -3.8 and TAR Tat displ 0.09.
`Cc1c(C(=O)NN2CCCCC2)nn(-c2ccc(Cl)cc2Cl)c1-c1ccc(I)cc1` gave TAR Tat displ 1.8.
CCOc1ccc(C2C(C(=O)c3ccc(C)o3)=C(O)C(=O)N2Cc2cccnc2)cc1OC (stereo not drawn) was read as CDC25B CDK2 inh -0.59 and TAR Tat displ -0.01.
Screening CC(C)(C)c1ccc(-c2nnc(NC(=O)c3ccc4c(c3)OCO4)s2)cc1 returned CDC25B CDK2 inh -1.4.
Cc1cccc(N2CCN(CC(O)c3c[nH]c4ccccc34)CC2)c1C (stereo not drawn) was read as CDC25B CDK2 inh 0.2 and TAR Tat displ -7.1.
`O=C(Nc1ccc(Oc2ncnc3cc(Cl)ccc23)nc1)c1ccc(-c2ccccn2)s1` gave CDC25B CDK2 inh -2.
Screening Cc1cc(N2CCN(C)CC2)nc(N2CCN(C(=O)Nc3cccc(Cl)c3)CC2)n1 returned TAR Tat displ 1.2.

Screens (PubChem)
